Screens as filed in PubChem BioAssay.
ClpP mod = qHTS Assay for Activators of ClpP; ATP-dependent Clp protease proteolytic subunit (Bacillus subtilis (strain 168)), P80244; purified B. subtilis ClpP, FRET peptide cleavage, 20 min; Potency, µM (series often up to 57.5 µM), without a hit: at the top dose activity change, negative = active; hit rate 1.9% among 340,000; active = well fitted falling curve with a large enough effect; inconclusive = small, poorly fitted or top-dose-only effect; inactive = no such curve, though single readings can be large or run the other way; note: the source files actives as falling curves though it sought activators and does not explain the sign; nearly all actives have a fitted effect of over 65% in size; many hits overshoot -100%
Target sequence (P80244 whole entry, looked up): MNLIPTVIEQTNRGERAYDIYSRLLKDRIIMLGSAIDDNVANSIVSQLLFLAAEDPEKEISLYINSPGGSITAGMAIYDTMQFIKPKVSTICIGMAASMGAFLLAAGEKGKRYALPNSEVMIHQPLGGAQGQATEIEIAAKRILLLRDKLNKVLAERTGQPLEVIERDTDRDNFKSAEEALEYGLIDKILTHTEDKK
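Buffer: 100 mM Tris/HCl pH8, 100 mM KCl, 0.05% low protease BSA, 2.5% glycerol, 0.01% Tween-20. ClpP 10 microg/mL final; 20 min RT; delta FRET normalized to ADEP and DMSO controls.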
* marks the source's active call; other numbers are inactive results; ? = inconclusive. Potency is the fitted concentration of half-maximal effect. Not all compounds are listed, so the mix of outcomes need not match the whole.

SMILES | ClpP mod
O=C(NCc1cccnc1)c1cc(C2CCCCN2C(=O)OCc2ccccc2)on1 (stereo not drawn) | -2.6%
CNc1cncc(-c2cccc(C(=O)N3CCOCC3)c2)n1 | 4.5%
Cc1cccc(C)c1NC(=O)c1csc(COCCO)n1 | -1.6%
COc1ccccc1CC1(C)C(=O)Nc2c(Cl)cccc21 (stereo not drawn) | -0.6%
COc1cccc(CNC(=S)Nc2ccc3c(c2)c(=O)n(C)n3Cc2csc(C)n2)c1 | 4.8%
CC(C)(C)NC(=O)C1c2ccccc2OCC(=O)N1Cc1ccccc1 (stereo not drawn) | -2.9%
CC(=O)NCCNc1nc2cc(-c3ccc4c(ccn4C)c3)sc2c(=O)n1C | 5.0%
O=S1(=O)CCO[C@H]2CCCC[C@@H]2N1Cc1ccccc1Br | -2.8%
CC(=O)Nc1cc(-c2cccc(C(=O)NCCN(C)C)c2)cn2c(-c3ccccc3)cnc12 | -9.8%
Cc1cscc1-c1cc2nc(NCCCN(C)C)n(C)c(=O)c2s1 | ?
COc1ccc(S(=O)(=O)N2CCC[C@H]2C(=O)N2CCC[C@H]2C(=O)NCc2ccncc2)cc1C | 1.9%
CCN(CC)C(=O)c1ncn2c1C(=O)N(C)CC2 | -1.5%
Cc1ccc2c(c1)C/C(=C/c1ccc(N(C)C)cc1)C2=O | -0.2%
NC(c1csc(NC(=O)c2cccc(OC(F)(F)F)c2)n1)c1ccccc1Cl (stereo not drawn) | -14.1%
CCCCn1nnnc1C(c1ccccc1)N1CCN(C/C=C/c2ccccc2)CC1 (stereo not drawn) | 0.1%
NC(=O)Nc1ccc(/C=C2\C=Cc3ccccc32)cc1 | -6.6%
CCc1nc2c(OCCn3cccc3)cccn2c1N(C)C(=O)c1ccccc1F | -0.7%
CCNc1nc(NC(C)C)nc(-c2ccncc2)n1 | -2.3%
CC1=C(C(=O)N2CCCCCC2)CC(CC(=O)NCC2CCCCC2)C(=O)N1Cc1ccc(F)cc1 (stereo not drawn) | 2.2%
Cc1cccc(C)c1NC(=O)C(c1ccc(C(F)(F)F)cc1)n1c(=O)c(-c2cc3ccccc3[nH]2)nc2ccccc21 (stereo not drawn) | 18.1%
COC(=O)c1ccc2nc(-c3ccc(OC)c(OC)c3)c(Cc3ccsc3)n2c1 | 5.7%
COCCCNC(=O)C[C@@H]1C[C@@]2(C(=O)OC)CCCCC=C2N(Cc2ccccc2)C1=O | -2.9%
CC[N+]1(CC(=O)c2ccc(Cl)cc2)CCCCC1 | 2.8%
CC1(C(=O)NS(=O)(=O)c2cccc(Cl)c2)CCN1C(=O)C1(c2ccccc2)CC1 (stereo not drawn) | -0.1%
Cc1cc2nc(-c3ccc(C#N)cc3)c(Cc3ccsc3)n2c(C)c1Br | -2.2%
Cc1cc(C)cc(S(=O)(=O)N2CCN(c3nc(-c4cccs4)nc4ccccc34)CC2)c1 | 4.5%
CC1(C(=O)NS(=O)(=O)Cc2ccccc2)CCN1C(=O)Cc1cc(F)ccc1F (stereo not drawn) | -0.5%
CCC(c1nc2ccccc2[nH]1)n1c(-c2cccnc2)nc2ccccc21 (stereo not drawn) | -7.3%
CC1(C(=O)O)CCCN1C(=O)c1cccc2ccccc12 (stereo not drawn) | 1.8%
CC(C)(C)c1ccc(Nc2n[nH]c3ccccc23)cc1 | 4.8%
COC1OC(c2ccccc2)=C(c2cnc(N)nc2)c2ccc(F)cc21 (stereo not drawn) | 0.3%
COCCN1C[C@@H](CO)O[C@@H](n2cnc3c(NCc4ccncc4)ncnc32)C1 | -6.8%
Cc1ccc2c(c1)N(Cc1ccccc1)C(=O)C(C)S2 (stereo not drawn) | 2.4%
CC1(C(=O)NS(=O)(=O)c2ccccc2C(F)(F)F)CCN1C(=O)C1CCCCC1 (stereo not drawn) | -0.5%
COC(=O)C1CCN(C2CN(Cc3ccccc3)S(=O)(=O)C2)CC1 (stereo not drawn) | -0.8%
CSc1ccc(C(O)c2ncc(-c3ccccc3F)[nH]2)cc1 (stereo not drawn) | 0.6%
CC1(C(=O)NS(=O)(=O)c2cccc(F)c2)CCN1C(=O)Cc1ccccc1Cl (stereo not drawn) | 0.1%
CCOC(=O)C1(C)CCCCN1C(=O)c1ccnc(Cl)c1 (stereo not drawn) | -0.1%
CC1(C(=O)NS(=O)(=O)c2ccccc2)CCN1C(=O)Cc1ccc(-c2ccccc2)cc1 (stereo not drawn) | 1.2%
COc1ccc(Cl)cc1Cn1c(C)c(C(=O)NCc2ccccc2C(F)(F)F)sc1=O | -3.9%

Reprinted from the part before: 3 entries; new compounds follow.
SMILES | ClpP mod
CCOC(=O)C1(C)CCCCN1C(=O)c1ccnc(Cl)c1 (stereo not drawn) | -0.1%
CC1(C(=O)NS(=O)(=O)c2ccccc2)CCN1C(=O)Cc1ccc(-c2ccccc2)cc1 (stereo not drawn) | 1.2%
COc1ccc(Cl)cc1Cn1c(C)c(C(=O)NCc2ccccc2C(F)(F)F)sc1=O | -3.9%
O=C(NCc1ccccc1)c1cc(C2COCCN2C(=O)CCc2ccccc2)on1 (stereo not drawn) | 0.9%
Cc1cc(OCC(=O)Nc2cccc(-c3nc4ccccc4o3)c2C)cc(C)c1Cl | ?
CCCNC(=O)C1(C)CCN(C(=O)c2cc(C(C)(C)C)nn2C)C1 (stereo not drawn) | 1.7%
O=C(C[n+]1csc2ccccc21)c1ccc(I)cc1 | 1.7%
NC(c1ccccc1)c1csc(Nc2ccccn2)n1 (stereo not drawn) | -9.0%
COc1ccc(C(NC(=O)C2CCN(CCCc3ccccc3)CC2)c2ccccn2)cc1 (stereo not drawn) | 2.6%
O=C(NCc1ccccc1)C1C(=O)Nc2ccccc2C(=O)N1c1ccc2c(c1)OCCO2 (stereo not drawn) | -10.9%
CCCc1nc2c(C)cc(Br)cn2c1Cc1cccc(F)c1 | -5.2%
CCNC(=O)C1(C)CCCN(C(=O)C2(c3ccc(Cl)cc3)CCCC2)C1 (stereo not drawn) | 0.8%
O=C1NC[C@H](CCCCN2C[C@H](Cc3ccc(O)cc3)N(CC3CCCCC3)C(=O)C2=O)N(CC2CCCCC2)C1=O | 0.5%
COc1ccc(C(C)(O)c2nc(-c3cccc(F)c3)cs2)cc1 (stereo not drawn) | -0.1%
O=S1(=O)CC(N2CCCCC2)CN1Cc1cn(Cc2ccc(Cl)cc2)nn1 (stereo not drawn) | 0.4%
COc1cccc(Cn2cnc(-c3ccccc3OC)c2-c2ccco2)c1 | -17.8%
CCCN1CNc2c(c(=O)[nH]c(=S)n2CCc2c(C)cccc2C)C1 | -0.3%
Brc1cccc[n+]1CCC[n+]1ccccc1Br | -3.8%
C[C@H](c1ccccc1)N1C[C@H](COCc2ccccc2)Oc2cc(N3CC[C@@H](N(C)C)C3)ccc2S1(=O)=O | -2.7%
CC(C)(C)c1ccc(C(=O)C[N+]2(C)CCCc3ccccc32)cc1 (stereo not drawn) | 0.1%
CC(=O)Oc1ccc2cc(-c3nc4c(s3)CCc3ccccc3-4)c(=O)oc2c1 | 1.0%
COc1cccc(COC(=O)Nc2ccccc2)c1OC | 1.3%
CC1(C)S[C@@H]2[C@H](NC(=O)COc3ccccc3)C(=O)N2[C@@H]1C(=O)OCc1cccc2cccnc12 | 0.4%

Retrieved by compound from above, 6 records:
SMILES | ClpP mod
O=C1NC[C@H](CCCCN2C[C@H](Cc3ccc(O)cc3)N(CC3CCCCC3)C(=O)C2=O)N(CC2CCCCC2)C1=O | 0.5%
COc1cccc(COC(=O)Nc2ccccc2)c1OC | 1.3%
C[C@H](c1ccccc1)N1C[C@H](COCc2ccccc2)Oc2cc(N3CC[C@@H](N(C)C)C3)ccc2S1(=O)=O | -2.7%
CC(C)(C)c1ccc(C(=O)C[N+]2(C)CCCc3ccccc32)cc1 (stereo not drawn) | 0.1%
O=C(NCc1ccccc1)c1cc(C2COCCN2C(=O)CCc2ccccc2)on1 (stereo not drawn) | 0.9%
O=C(C[n+]1csc2ccccc21)c1ccc(I)cc1 | 1.7%

(next part)
SMILES | ClpP mod
CCNC(=O)C1(C)CCCN1C(=O)c1cc(C)on1 (stereo not drawn) | -3.0%
Cc1cc2nc(C3CCCCC3)c(Cc3ccccc3C(F)(F)F)n2c(C)c1Br | -1.1%
COc1ccc(CC(N)c2csc(Nc3nccc(C(F)(F)F)n3)n2)cc1 (stereo not drawn) | -1.1%
c1ccc(CNc2nc(Oc3ccncc3)c3sccc3n2)cc1 | 4.2%
Cn1cc([C@]2(O)C(=O)Nc3c(F)cccc32)c2ccccc21 | 0.6%
CC(=O)[C@H]1CC[C@@H](c2ccccc2)N(S(=O)(=O)c2ccc(C)cc2)C1 | -0.2%
CC(=O)Nc1cc(-c2ccccc2)cn2c(-c3ccc(F)cc3)cnc12 | -11.4%
O=[N+]([O-])c1cccc(/C=C/c2ccccc2)c1 | 0.7%
COc1ccc(-c2c(C(=O)c3ccccc3)[nH]c(N)c2C(=O)c2ccc(Br)cc2)cc1OC | -0.1%
CC(C)CNc1ncnc2c1ncn2[C@H]1CN(Cc2cccs2)C[C@@H](CO)O1 | 0.8%
CCn1c2ccccc2c2cc(/C=C3\C=Cc4ccccc43)ccc21 | 1.9%
COC(=O)[C@]12CCCCC=C1N(Cc1ccccc1)C(=O)[C@H](CC(=O)NCc1cccc3ccccc13)C2 | -5.2%
C[C@H]1O[C@H](C2CCCC2)CC2=C1C(=O)OC(C)(C)O2 | 2.2%
O=C1NC[C@@H](CCCCN2C[C@H](Cc3ccc(O)cc3)N(CC3CCCCC3)C(=O)C2=O)N(CCC2CCCCC2)C1=O | 0.8%
CCCS(=O)(=O)NC(=O)C1(C)CCN(C(=O)Cc2cccc(OC)c2)C1 (stereo not drawn) | 1.3%
O=C(NCCc1c[nH]c2ccccc12)OC1CC2CC1[C@H]1CCCCN1C2=O (stereo partly drawn) | -14.5%
O=C(Nc1c(-c2ccc(Cl)cc2)[nH][nH]c1=O)c1ccccn1 | -10.0%
CNc1cnc(-c2ccccc2OC)cn1 | 4.0%
COc1ccc2c(c1)C(=O)O[C@@H](c1ccccc1)C[C@@H](O)C(=O)CC2 | 5.3%
CCCCNC(=O)C1(C)CCCCN1C(=O)c1ccno1 (stereo not drawn) | 0.7%
COC(=O)C[C@@H]1C=C[C@H](NC(=O)Nc2ccc(F)cc2)[C@@H](CO)O1 | -1.1%
CC(=O)Nc1cc(-c2ccc(N(C)C)cc2)cn2c(-c3ccc(F)cc3)cnc12 | -14.5%
CC(=O)N1C[C@@H](CO)[C@@H](N(C)C(=O)c2ccco2)C[C@H]1c1ccccc1 | 0.0%
CCOC(=O)Cc1ccc(Nc2nc(NCc3cccs3)nc3ccsc23)cc1 | ?
CCCCCCCCN1C(=O)[C@H](CC(=O)NCC23CC4CC(CC(C4)C2)C3)C[C@@]2(C(=O)OC)CCCCC=C12 | -1.5%
CN(C)CCNc1ncnc2c1ncn2[C@H]1CN(Cc2cccnc2)C[C@@H](CO)O1 | -4.6%
O=C(c1[nH]c(C(F)(F)F)nc1-c1ccccc1)N1CCN(C/C=C/c2ccccc2)CC1 | -4.7%
O=C(Nc1cccc(Cl)c1Cl)c1csc([C@H]2C[C@H](O)[C@@H](CO)O2)n1 | -5.0%
O=C(NCCCCO)c1c(-c2ccccc2)oc2c1C(OCCCCCO)CCC2 (stereo not drawn) | 4.8%
CCNC(=O)C1(C)CCCN(Cc2cccc3ccccc23)C1 (stereo not drawn) | -4.3%
COC(=O)/C=C/c1cc(F)ccc1S(=O)(=O)Nc1ccccc1 | -2.3%
O=C(Cc1ccc(Oc2ccccc2)cc1)NO | 3.3%
CCCCCCCCN1[C@@H](CC(=O)O)c2ccc(/C=C/C(=O)O)cc2S1(=O)=O | -10.7%
CCCCCCC[n+]1c(/C=C/c2ccc(N(C)C)cc2)sc2ccccc21 | 2.2%
CCCCn1nnnc1C(c1cc2ccccc2o1)N1CCN(c2ncccc2C#N)CC1 (stereo not drawn) | 5.1%
CCNC(=O)C1(C)CCN(C(=O)c2c(-c3ccccc3)noc2C)C1 (stereo not drawn) | 0.4%
Cn1c(=O)c2cc(NC(=O)NCc3ccc(Cl)cc3Cl)ccc2n1Cc1ccccc1 | 4.2%
CC(C)C[C@H]1CN(CCCC[C@H]2CNC(=O)C(=O)N2CCc2ccccc2)C(=O)C(=O)N1CC1CCCCC1 | ?
Cc1ccc(S(=O)(=O)N2C[C@H]3C(=O)C[C@@H](c4ccccc4F)N(S(=O)(=O)c4ccc(C)cc4)[C@H]3C[C@H]2c2ccccc2F)cc1 | -4.4%
Cc1ccc([C@@H]2CC(=O)[C@@H]3CN(S(=O)(=O)c4ccc(C)cc4)[C@H](c4ccccc4F)C[C@@H]3N2S(=O)(=O)c2ccc(C)cc2)cc1 | -3.8%
CCNC(=O)C1CCCN(C(=O)c2ccccc2)CC1 (stereo not drawn) | 0.7%
CN(C)C(=O)C1=NOC2(C1)C(=O)Nc1ccccc12 (stereo not drawn) | 1.6%
Cc1ccccc1OCC(=O)NCC(=O)OCC(=O)c1ccc(F)cc1 | -0.3%
COc1ccc(-c2csc(C(NC(C)=O)c3ccccc3)n2)cn1 (stereo not drawn) | 0.6%
CC1CC2(CC(CN(C3CCCCC3)C3CCCCC3)OC2=O)C(=O)O1 (stereo not drawn) | 0.5%
CCCCN(C(C)=O)c1c(CC)nc2ccc(C(=O)NCCCN(C)C)cn12 | -28.0%
O=C(Cc1ccccc1)NS(=O)(=O)c1ccccc1 | -1.1%
CCCc1c(-c2ccc(F)cc2F)ncn1Cc1ccccc1OC | 1.3%
CNc1cncc(-c2cc(OC)ccc2OC)n1 | ?
CC1(C(=O)NCc2ccc(Cl)cc2)CCN1C(=O)Cc1cccc2ccccc12 (stereo not drawn) | -4.1%
